High-throughput results from PubChem BioAssay.
GLA inh pH 4.5: blocks human alpha-galactosidase A at pH 4.5; activity change, negative = inhibition, % at 105 µM; purified enzyme, 4-MU-alpha-Gal fluorescence, pH 4.5; AID 1467; P06280; 230,000 tested, under 10 active; inconclusive = small, poorly fitted or top-dose-only inhibition, or a rising curve; inactive = flat fitted curve, though single readings scatter; no compound was filed as active;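 further: 0% = full activity with enzyme and -100% = basal without enzyme; dose as in the result columns while the protocol names 77 µM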
Rango complex inh: inhibitors of Rango-importin beta complex formation | Q14974 | Rango CFP/YFP FRET sensor + importin beta, 45 min | Potency, µM (titrated, usually from 92.2 µM), for the others: at the top dose inhibition of complex formation | hit rate 0.031% among 340,000; active = rising FRET ratio curve, often small or poorly fitted; inconclusive = mostly compound fluorescence or quenching in the first reads; inactive = flat curves in all reads;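 further: potency means the concentration at half of the fitted maximal effect; 0% = DMSO wells and 100% = buffer wells lacking importin beta; nearly all actives have a fitted effect of over 15% in size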
Target sequence (Q14974 whole entry, looked up): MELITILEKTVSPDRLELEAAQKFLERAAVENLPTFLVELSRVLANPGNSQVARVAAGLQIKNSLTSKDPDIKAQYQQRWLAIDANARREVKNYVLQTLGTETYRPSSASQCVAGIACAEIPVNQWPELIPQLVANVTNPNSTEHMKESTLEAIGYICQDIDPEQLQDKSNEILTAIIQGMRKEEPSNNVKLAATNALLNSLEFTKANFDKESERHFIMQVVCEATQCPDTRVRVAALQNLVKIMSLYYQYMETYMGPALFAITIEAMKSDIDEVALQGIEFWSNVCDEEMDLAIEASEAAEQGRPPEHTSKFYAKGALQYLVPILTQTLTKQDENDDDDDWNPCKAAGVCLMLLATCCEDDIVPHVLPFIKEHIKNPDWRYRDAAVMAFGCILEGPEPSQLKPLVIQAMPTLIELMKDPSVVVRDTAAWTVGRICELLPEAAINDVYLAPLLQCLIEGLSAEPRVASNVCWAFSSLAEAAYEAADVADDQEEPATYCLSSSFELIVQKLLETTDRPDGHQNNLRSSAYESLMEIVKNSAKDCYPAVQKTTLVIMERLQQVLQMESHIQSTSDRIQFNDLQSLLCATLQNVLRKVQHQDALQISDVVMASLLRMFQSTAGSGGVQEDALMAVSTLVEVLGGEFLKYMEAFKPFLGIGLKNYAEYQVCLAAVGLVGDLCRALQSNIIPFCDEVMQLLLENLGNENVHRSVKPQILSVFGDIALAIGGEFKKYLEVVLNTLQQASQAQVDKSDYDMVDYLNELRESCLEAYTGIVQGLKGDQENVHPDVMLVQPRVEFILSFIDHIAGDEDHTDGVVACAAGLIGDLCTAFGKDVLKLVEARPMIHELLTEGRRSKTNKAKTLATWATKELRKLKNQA
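Inhibition scored from the CFP 486 nm/YFP 530 nm FRET ratio 45 min after adding 0.125 microM importin beta to 50 nM Rango biosensor preincubated 5 min with compound (room temperature, PBS with DTT, Tween-20, BSA). No-importin wells as positive control.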
miR-21 reporter: raises the signal of a miR-21 reporter. HeLa miR-21 FLuc reporter, luciferase, 48 h. Potency, µM (series often up to 38.3 µM), without a hit: at the highest dose reporter change, positive = more light. 340,000 tested, under 10 active; active = well fitted rising curve with a large enough effect; inconclusive = small, poorly fitted or top-dose-only effect; inactive = no such curve, though single readings can be large or run the other way;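 further: % of control where 0% means no effect; miR-21 action dims this reporter so a rising signal means less miR-21 action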
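Compounds were titrated across several concentrations (up to approximately 40 uM) and incubated 48 hours with HeLa miR-21-FLuc reporter cells (miR-21 target sequence downstream of FLuc, endogenous miR-21). Readout was firefly luciferase luminescence after lytic detection reagent.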
Rango release inh: inhibition of RanGTP-driven Rango-importin beta dissociation; Potency, µM (series often up to 46.1 µM), without a hit: top-dose activity change, negative = inhibition; Biochemical FRET Rango-importin beta, RanGTP-induced dissociation; hit rate 0.071% among 340,000; active means falling FRET ratio curve, often poorly fitted, with flat reads before Ran was added; inconclusive means other falling curves, or compound fluorescence or quenching; inactive means flat or rising ratio curve;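 further: potency means the concentration at half of the fitted maximal effect; % of control where 0% means no effect; nearly all actives have a fitted effect of over 45% in size; -100% = wells without RanGTP and RCC1; the record marks most hits as doubtful in a second field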
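FRET read at 45 min, room temperature: inhibitors block the CFP/YFP signal rise when RanGTP (0.6 uM Ran, 2 mM GTP, 0.2 uM RCC1) frees Rango (0.1 uM) from importin beta (0.25 uM). Pre-read after 5 min compound exposure flags interference.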
An asterisk follows results filed as active; ? = inconclusive; . = not tested or not shown; [ ] = another dose, or the depositor's remark. These rows are one share of the data; the hit share may differ from the screen's.

Below each compound: GLA inh pH 4.5	Rango complex inh	miR-21 reporter	Rango release inh
> CCOC(=O)C1=C(Nc2ccc(Br)cc2)CC(C)(O)C(C(=O)OCC)C1c1ccccc1 (centres undefined)
 : -5	-3.2%	-1%	-17%
> O=C(O/N=C\c1ccc(N2CCOCC2)c([N+](=O)[O-])c1)c1ccc(F)cc1
 : -7	1.3%	-3%	-9%
> O=C(Nc1cccc(O)c1)c1ccc(C(=O)c2ccccc2)o1
 : 6	-1.8%	-38%	4%
> Cc1[nH]c2ccccc2c1SCC(=O)N1CCOCC1
 : 9	-1.4%	-3%	11%
> COc1ccc(CN(CCN)C2CC(C)N(C)CC2C)cc1 (centres undefined)
 : .	-0.8%	-11%	-1%
> NC(=O)NN=C1C2CCCC1C(c1ccccc1)NC2c1ccccc1 (centres undefined)
 : 1	-1.1%	4%	6%
> C1CC(CN2CCOCC2)CN(Cc2nc(CC3CC3)no2)C1 (centres undefined)
 : -1	4.5%	2%	10%
> O=C(Nc1ccncc1)Nc1ccc(Cl)cc1Cl
 : .	0.6%	-1%	-4%
> Cc1ccc(NC(=O)c2ccc(-n3cccn3)c([N+](=O)[O-])c2)cc1C
 : -3	-1.7%	-22%	28%
> O=C(Nc1ncccc1O)c1ccc(C(=O)c2ccccc2)cc1
 : .	-4.5%	.	0%

Entries of single compounds as entered above. Values in the order: GLA inh pH 4.5	Rango complex inh	miR-21 reporter	Rango release inh
`Cc1ccc(NC(=O)c2ccc(-n3cccn3)c([N+](=O)[O-])c2)cc1C` across the screens: -3	-1.7%	-22%	28%
`NC(=O)NN=C1C2CCCC1C(c1ccccc1)NC2c1ccccc1` (centres undefined) across the screens: 1	-1.1%	4%	6%
`Cc1[nH]c2ccccc2c1SCC(=O)N1CCOCC1` across the screens: 9	-1.4%	-3%	11%
`O=C(O/N=C\c1ccc(N2CCOCC2)c([N+](=O)[O-])c1)c1ccc(F)cc1` across the screens: -7	1.3%	-3%	-9%

Additional entries follow:
Below each compound: GLA inh pH 4.5	Rango complex inh	miR-21 reporter	Rango release inh
> CCOc1cc(N2CCOCC2)c(OCC)cc1NC(=O)CC12CC3CC(CC(C3)C1)C2
 : 1	6.3%	-4%	7%
> O=C(Nc1cnccn1)Nc1cccc(Cl)c1Cl
 : 3	-1.4%	2%	1%
> CCOc1ccc(NC(=O)c2sc3nc(C)nc(N4CCOCC4)c3c2C)cc1
 : .	1.4%	-6%	3%
> CCc1nc(NCC2CCCO2)c2oc3ccccc3c2n1 (centres undefined)
 : 8	3.0%	-6%	-20%
> Cc1cc(C)c(C#N)c(SCC(O)CS(=O)(=O)Cc2ccccc2)n1 (centres undefined)
 : 0	-2.1%	-12%	5%
> CC(=O)c1ccc(NC(=O)C(C)OC(=O)c2ccc(Br)o2)cc1 (centres undefined)
 : .	0.5%	.	2%
> CNC(=O)CSc1nnc(-c2cc(C)cc(C)c2)o1
 : -7	0.1%	-9%	13%
> CCn1c(=O)cc(OCC(=O)NCc2ccco2)c2ccccc21
 : 4	-2.1%	-5%	1%
> O=C(/C=C/c1ccccc1)Oc1coc(CSc2ncccn2)cc1=O
 : 2	1.6%	-2%	-5%
> COc1ccccc1C(=O)NCCCNC(=O)c1ccccn1
 : .	0.1%	-5%	0%

Next section
Below each compound: GLA inh pH 4.5	Rango complex inh	miR-21 reporter	Rango release inh
> O=C(Nc1ccc(S(=O)(=O)Nc2nccs2)cc1)c1cccc(N2C(=O)c3ccccc3C2=O)c1
 : 3	?	0%	-19%
> CCCCC/C=C\C[C@H](O)/C=C/c1cccc(C[C@H](O)CCCCO)n1
 : .	7.4%	-7%	11%
> COc1ccc(OC)c(C(c2nnnn2Cc2ccccc2)N2CCN(C3CCCCC3)CC2)c1 (centres undefined)
 : -9	-2.1%	0%	-9%
> Cn1nc([N+](=O)[O-])nc1Oc1ccccc1N
 : 4	?	6%	0%
> CC(C)(C)c1nnc2cccc(Cl)n12
 : -1	0.3%	-10%	-1%
> COc1ccccc1/C=C/C=N/NC(=O)c1cccs1
 : -17	?	-68%	-18%
> N#Cc1c2nc3ccccc3nc2n2cc(NC(=O)c3ccc(F)cc3)ccc12
 : -12	?	-5%	?
> c1ccc(-c2ccccc2OCCOCCN2CCNCC2)cc1
 : -17	3.0%	-5%	-6%
> O=C(NCc1ccccc1)C1=C[C@H](c2ccc3c(c2)OCO3)C[C@H](OCc2ccc(CO)cc2)O1
 : .	1.9%	.	4%
> CS(=O)(=O)Oc1ccccc1/C=C1/N=C(c2ccc(F)cc2)OC1=O
 : 11	-2.4%	-9%	-28%

Next part:
Below each compound: GLA inh pH 4.5	Rango complex inh	miR-21 reporter	Rango release inh
> COc1ccc(NC(=O)CSc2nc3c(c(-c4cccs4)c2C#N)CN(C)CC3)cc1OC
 : -16	?	-7%	?
> O=C(c1ccco1)N1CCN(c2cc(N3CCOCC3)c(F)cc2[N+](=O)[O-])CC1
 : -10	1.6%	-7%	3%
> O=C(NC1CCCCC1)C1CC(=O)N(CCc2ccc(F)cc2)C1 (centres undefined)
 : .	-6.5%	-3%	0%
> CCCNC(=O)c1cc(-c2ccc(OC)cc2)n(CCCOC)c1C
 : 2	6.2%	-8%	-11%
> COc1cc2c(cc1OC)-c1nnc(-c3ccco3)n1C1(CCCC1)C2
 : 1	1.8%	-10%	1%
> Cc1cccc(NC(=S)NCCc2ccc(Cl)cc2)c1C
 : .	1.6%	2%	1%
> O=C(COC(=O)Cc1ccccc1)NCc1ccc2c(c1)OCO2
 : .	3.1%	.	-4%
> Cc1ccc(/C=C2/Sc3ccc(C(=O)N4CCN(C)CC4)cc3NC2=O)cc1
 : .	-2.0%	-7%	7%
> Cc1ccccc1Cn1c(=O)n(CC2CCC(C(=O)NCCc3ccccc3)CC2)c(=O)c2ccccc21 (centres undefined)
 : 4	2.3%	-4%	1%
> CC(c1ccc2c(c1)OCO2)n1c(=S)[nH]c2ccccc2c1=O (centres undefined)
 : .	-0.7%	.	-3%

(further entries)
Below each compound: GLA inh pH 4.5	Rango complex inh	miR-21 reporter	Rango release inh
> CC(=O)c1cccc(NC(=O)c2cc(-c3ccc(C)cc3)on2)c1
 : -10	8.3%	-20%	4%
> CC[C@@H]1Cc2cc(O)ccc2C2=C1c1ccc(O)cc1C[C@H]2CC
 : ?	0.3%	.	10%
> C[C@H](CO)N1C[C@H](C)[C@H](CN(C)Cc2ccc(-c3ccccc3)cc2)Oc2ccc(NS(=O)(=O)c3ccccc3)cc2CC1=O
 : .	3.3%	.	5%
> Cc1ccc(S(=O)(=O)N2CC3CCC2C3)cc1 (centres undefined)
 : 4	-2.2%	-6%	-7%
> COc1cccc(C(=O)NCCCN2CCN(CCCNC(=O)c3cccc(OC)c3)CC2)c1
 : 1	-0.5%	-1%	39%
> Nc1nnc(SCC(=O)Nc2sc3c(c2C(=O)c2ccccc2)CCCC3)s1
 : -3	-10.0%	-1%	-7%
> Cc1ccc(-n2nc3c(=O)n(CCCC(=O)NCc4ccco4)nc(C)c3c2C)cc1
 : .	-3.2%	-1%	1%
> Cc1cc(=O)oc2c(C)c(OC(C)C(=O)NCCN3CCOCC3)ccc12 (centres undefined)
 : .	3.2%	-5%	-18%
> COCC(=O)N1CCC(n2nccc2NC(=O)c2ccccc2OC)CC1
 : .	-6.1%	-15%	1%
> COc1ccc(-n2c(SCC(N)=O)nc3sc4c(c3c2=O)CCC4)cc1
 : 6	-0.3%	-6%	?

Later entries.
smiles	GLA inh pH 4.5	Rango complex inh	miR-21 reporter	Rango release inh
Cc1cnc(C(=O)NCCc2ccc(C(F)(F)F)cc2)cn1	.	-0.9%	0%	-10%
Nc1nc(-c2ccccn2)nc(N)c1Cc1ccccc1F	-2	-0.7%	23%	0%
CCCCN(C(=O)COc1ccc(C)cc1OC)c1c(N)n(CCC)c(=O)[nH]c1=O	7	-1.9%	7%	7%
CSCCC(NC(=O)c1ccccc1Cl)C(=O)NCc1ccncc1 (centres undefined)	.	-2.7%	.	1%
NS(=O)(=O)c1cccc(NC(=O)COC(=O)CN2C(=O)C3CC=CCC3C2=O)c1 (centres undefined)	1	0.7%	0%	-1%
COc1cc(CNc2nnnn2C)cc(OC)c1OC	.	0.0%	1%	22%
CCOC(=O)C1(CC2CCCCO2)CCN(S(=O)(=O)c2cccc(F)c2)CC1 (centres undefined)	2	6.1%	-1%	0%
CCC(=O)NC(c1ccc(C)cc1)c1ccc2cccnc2c1O (centres undefined)	.	-3.3%	?	-10%
COc1ccc(-n2c(O)cnc2Nc2nc(C)cc(C)n2)cc1OC	1	2.6%	0%	1%
COc1ccc(CC(=O)NNC(=O)CSc2nc(C)c(C)c(=O)[nH]2)cc1	-8	-1.3%	-3%	12%
COCCn1cc(C(=O)c2cc(Br)ccc2O)cc(C#N)c1=O	-12	3.6%	1%	-21%
Cc1cc(C(F)(F)Cl)n2ncc(-c3ccccn3)c2n1	.	0.4%	-10%	4%
CC1CCCCC1NC(=O)CN(C)S(=O)(=O)c1ccc2c(c1)c(=O)n(C)c(=O)n2C (centres undefined)	.	0.7%	-7%	3%
c1coc(CNc2c3c(nc4ncnn24)CCC3)c1	-2	-1.6%	-17%	2%
CCOC(=O)/C(C#N)=C(\N)C(C)C(=O)Nc1ccccn1 (centres undefined)	-6	7.3%	0%	-3%
O=C(Nc1nc(-c2ccc(F)cc2)cs1)c1cnccn1	-3	2.4%	-18%	-2%
O=S(=O)(NCC1CCCO1)c1ccc(NS(=O)(=O)c2ccc(F)cc2)cc1 (centres undefined)	.	-0.3%	-4%	-2%
CCOc1ccc(-n2c(=O)cc(N3CCN(c4ccc(F)cc4)CC3)[nH]c2=O)cc1	-4	-5.5%	2%	9%
Cc1ccc2nc(-c3ccccc3O)c(Nc3ccc4c(c3)OCCO4)n2c1	-3	1.2%	-6%	18%
O=C(NC(NC1CCS(=O)(=O)C1)C(=O)c1cccs1)c1ccccc1 (centres undefined)	7	0.1%	-12%	0%
CC1CN(C(=O)c2ccc(COc3ccc4ccccc4c3)o2)CC(C)O1 (centres undefined)	3	0.5%	-36%	10%
O=C(c1ccc(S(=O)(=O)Cc2cc(F)ccc2F)c([N+](=O)[O-])c1)N1CCCC1	-2	-4.6%	21%	17%
Cc1ccc(O)c(C(=O)c2cnc3onc(-c4ccc(F)cc4)c3c2)c1	-9	-4.2%	-5%	-3%
COc1ccc(NS(=O)(=O)c2cc(NC(=O)c3cnccn3)ccc2OC)cc1Br	-14	-0.7%	17%	8%
O=C(CCN1CCC(c2cccs2)=N1)c1cccs1	5	?	-55%	?
CC(=O)Nc1ccc(C(=O)OCCCOC(=O)c2ccc(NC(C)=O)cc2)cc1	.	-5.7%	-7%	-2%
CCOC(=O)N1CCN(C(=O)/C=C/c2ccc3c(c2)OCO3)CC1	-6	-1.6%	-5%	-6%
COc1ccc(S(=O)(=O)NCC(c2ccc3c(c2)OCO3)N2CCN(C)CC2)cc1OC (centres undefined)	.	0.3%	.	-2%
CC(C)(C)OC(=O)N/N=C/c1cn(-c2ccccc2)nc1-c1cccnc1	-15[21.1 µM]	-1.1%	2%	13%
CN(c1ccc(Cl)cc1)c1cc(=O)n(C)c2ccccc12	2	-13%	8%	-10%

Next section:
smiles	GLA inh pH 4.5	Rango complex inh	miR-21 reporter	Rango release inh
O=C(Nc1ccc(N2CCN(C(=O)c3ccccc3)CC2)cc1)c1cc([N+](=O)[O-])ccc1N1CCOCC1	.	?	0%	1%
CCCCNC(=O)c1ccccc1NC(=O)c1ccc2c(c1)OCO2	0	-0.5%	4%	18%
O=c1[nH]cnc2c1ncn2C1OCC(O)C(O)C1O (centres undefined)	.	4.5%	.	0%
O=S(=O)(c1ccc(Cl)cc1)N1CCN(c2ccc(N3CCOCC3)nn2)CC1	-13	-3.9%	-1%	-1%
O=C(CSc1nc(O)cc(=O)[nH]1)C1CC1	-2	0.7%	2%	21%
c1ccc(Cn2nnc(CNc3ccccc3)c2-c2c(CNc3ccccc3)nnn2Cc2ccccc2)cc1	-15	-0.4%	19%	-3%
CCCCc1ccc(NC(=S)N2CCCC(C)C2)cc1 (centres undefined)	1	-1.4%	-25%	-4%
